# Assay outcomes: PubChem, National Center for Advancing Translational Sciences (NCATS)
# RE007 growth inh – less growth of the S. pombe RE007 Vpr strain; S. pombe RE007 Vpr strain, BacTiter-Glo ATP luminescence, 24 h; control for the full effect not named in the record; Potency, µM (top dose mostly 92.2 µM), inactives show at the top dose activity change, negative = less growth; 360,000 tested, 0.21% active; active = well fitted falling curve with a large enough effect; inconclusive = small, poorly fitted or top-dose-only effect; inactive = no such curve, though single readings can be large or run the other way;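 note: % is set by controls: 0 for no effect and ±100 for the full control effect; nearly all actives have a fitted effect of over 50% in size; the assay follows cell death caused by Vpr and the record does not say whether a fall means rescue or toxicity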
#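 Fission yeast strain RE007, carrying one chromosomally integrated HIV-1 vpr copy, was seeded at OD 0.01 in PMG+AL medium with 23 nL pinned compound. After 24 h at 30 °C and 99% humidity, viability was read by BacTiter-Glo luminescence.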
# Cruzain noTriton – blocks cruzain activity in detergent-free assay; P25779; purified cruzain, Z-FR-AMC fluorescence, no detergent; Potency, µM, without a hit: max response, negative = inhibition, actives largely listed as inhibitors; 200,000 tested, 2.3% active; AID 1476; active = well fitted curve in the direction sought with a large enough effect; inconclusive = small, poorly fitted or top-dose-only effect, or another doubt; inactive = no such curve, though single readings can be large; an effect the other way counts as inactive or inconclusive;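 note: plate controls were enzyme without inhibitor for no effect and buffer without enzyme for full effect; nearly all actives have a fitted effect of over 40% in size; top concentration of the series not given in the record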
# Target sequence (P25779 123-467 limits assumed): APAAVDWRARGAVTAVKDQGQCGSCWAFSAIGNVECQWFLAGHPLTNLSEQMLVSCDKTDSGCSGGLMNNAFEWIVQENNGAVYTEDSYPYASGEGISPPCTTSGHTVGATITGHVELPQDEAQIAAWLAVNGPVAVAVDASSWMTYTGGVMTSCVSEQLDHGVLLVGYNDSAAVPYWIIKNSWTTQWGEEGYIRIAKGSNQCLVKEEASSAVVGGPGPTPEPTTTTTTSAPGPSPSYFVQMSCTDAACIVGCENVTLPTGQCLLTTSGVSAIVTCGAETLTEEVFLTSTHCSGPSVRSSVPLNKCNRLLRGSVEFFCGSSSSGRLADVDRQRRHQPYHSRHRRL
#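 Detergent-free condition (0.00005% Triton X-100) in acetate buffer pH 5.5 with DTT. 1.5 nM enzyme and compound were pre-mixed 15 min, then 2 uM Z-FR-AMC substrate added; reaction progress from fluorescence change between first and third reads (60 s).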
# 2A StopGo – FMDV 2A StopGo reporter, luciferase signal. Potency, µM (top dose mostly 57.9 µM), for the others: top-dose signal change, negative = less light. AID 1159524. human cells with a luciferase reporter of 2A StopGo recoding; control for the full effect not named in the record. 410,000 tested, 1.2% active; active = well fitted falling curve with a large enough effect; inconclusive = small, poorly fitted or top-dose-only effect; inactive = no such curve, though single readings can be large or run the other way; tested in HEK293T cells; note: % is set by controls: 0 for no effect and ±100 for the full control effect; nearly all actives have a fitted effect of over 45% in size; luciferase light after 4 h
# NS1 function inh – blocks influenza NS1 protein function; S. cerevisiae slowed by influenza A NS1, growth recovery by OD600; 270,000 tested, 0.4% active; AID 2326; Potency, µM (titrated, usually from 46.1 µM), for the others: at the highest dose activity, positive = more growth; note: actives are rising curves; nearly all actives have a fitted effect of over 50% in size
#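 Read-out: OD600 growth recovery of NS1-expressing budding yeast. Cells grown overnight at 30C in -URA glucose medium, washed, resuspended and diluted 1:100 in 2% galactose assay medium, pH 6.0. Same strain lacking NS1 served as positive control.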
# MARV entry inh – blocks Marburg virus binding to or entry into cells | Marburg virus pseudotyped entry inhibition, cell reporter; control for the full effect not named in the record; about a third of the inactives were read at about 46 µM | 300,000 tested, 1.8% active | Potency, µM (top dose mostly 37.8 µM), without a hit: at the top dose activity change, negative = inhibition, hits mostly inhibitors; active = well fitted inhibition curve with a large enough effect; inconclusive = small, poorly fitted or top-dose-only effect, or effect the other way; inactive = flat fitted curve, though single readings scatter; tested in HEK293 cells; about a fifth of its hits are not listed in these tables; note: % is set by controls: 0 for no effect and ±100 for the full control effect; luciferase read-out
# LASV entry inh – inhibitors of Lassa virus binding or cell entry. Lassa virus pseudotype entry inhibition, cell reporter; control for the full effect not named in the record. Potency, µM (series often up to 37.9 µM), inactives show at the top dose activity change, negative = inhibition, most hits filed as inhibitors. 300,000 tested, 1.2% active. AID 540256; active means well fitted inhibition curve with a large enough effect; inconclusive means small, poorly fitted or top-dose-only effect, or effect the other way; inactive means flat fitted curve, though single readings scatter; tested in HEK293 cells; note: % is set by controls: 0 for no effect and ±100 for the full control effect; nearly all actives have a fitted effect of over 50% in size; luciferase read-out
# Cruzain Triton – inhibitors of Trypanosoma cruzi cruzain with detergent. purified cruzain, Z-FR-AMC fluorescence, 0.01% Triton. Potency, µM, without a hit: max response, negative = inhibition, most hits filed as inhibitors. P25779. 200,000 tested, 0.43% active; active = well fitted curve in the direction sought with a large enough effect; inconclusive = small, poorly fitted or top-dose-only effect, or another doubt; inactive = no such curve, though single readings can be large; an effect the other way counts as inactive or inconclusive;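 note: plate controls were neutral wells for no effect and buffer without enzyme for full effect; nearly all actives have a fitted effect of over 40% in size; top concentration of the series not given in the record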
#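 Compounds were screened in titration against cruzain (1.5 nM) with 0.01% Triton X-100 to counter colloidal aggregation. Activity was the AMC fluorescence increase over 60 s after adding 2 uM Z-FR-AMC at pH 5.5.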
# SARS PLP yeast – inhibitors of SARS-CoV papain-like protease in yeast. S. cerevisiae expressing SARS-CoV PLpro, growth rescue; control for the full effect not named in the record. Potency, µM (top dose mostly 32.9 µM), for inactives: at the top dose activity, positive = growth rescue. 330,000 tested, 0.19% active. AID 485353; note: 0% is about no effect; nearly all actives have a fitted effect of over 55% in size; growth read by luminescence after 48 h
# * hit, by the source's call; ? = inconclusive; nt = not tested or not shown; [ ] = another dose, or the depositor's remark. Unless noted, calls come from the whole dose curve; as a rule, active means well fitted rising curve with a large enough effect; inconclusive means small, poorly fitted or top-dose-only effect; inactive means no such curve, though single readings can be large or run the other way. Potency is the fitted concentration of half-maximal effect. Rows were taken by chance; 4.7% or so of the library scored in one or more.
SMILES,RE007 growth inh,Cruzain noTriton,2A StopGo,NS1 function inh,MARV entry inh,LASV entry inh,Cruzain Triton,SARS PLP yeast
CCCNC(=O)c1ccccc1NC(=O)c1ccccc1SC,0%,nt,-18%,-7%,nt,nt,nt,-1%
COc1cc(CN2CC(=O)N(c3ccc(C)cc3)C2=S)cc(OC)c1OC,1%,?,-20%,8%,?,1%,-1.2%,-3%
COc1ccc(OCC(=O)NCCc2c[nH]c3ccccc23)cc1,7%,nt,-10%,-10%,-18%[46.1 µM],-26%[46.1 µM],nt,0%
C=CCn1c(C)cc(C(=O)CN2C(=O)c3ccccc3C2=O)c1C,11%,4%,nt,0%,?,?,-2.4%,0%
CCCCC(=O)Nc1cccc(-c2csc(-c3ccccc3)n2)c1,-3%,7%,9%,-2%,?,?,-6.2%,-19%
CN(C)CCCC(C)(O)C(C)(C)c1ccccc1 (stereo not drawn),15%,-10%,-16%,-11%,5%,16%,-0.1%,21%
CN1C(=O)NC(c2cccc(O)c2)C(C(=O)c2cccs2)C1(O)C(F)(F)F (stereo not drawn),-13%,4%,nt,-142%,20%,?,13%,-3%
COc1ccc2c(c1)cc(C(=O)N[C@@H](Cc1ccccc1)C(=O)N[C@@H](C)C(=O)O)n2C,8%,nt,-10%,5%,8%[46.1 µM],4%[46.1 µM],nt,-2%
Cc1ccc(-n2c(SCC(=O)OC(C)C)nnc2-c2cnccn2)cc1,-4%,-3%,9%,14%,?,-4%,5.8%,3%
O=C(CN1C(=O)c2ccccc2S1(=O)=O)NCc1ccco1,1%,nt,17%,2%,5%[46.1 µM],-14%,nt,0%
COc1ccc(Cn2c(-c3ccc(C)cc3)nc3c(c(=O)c4ccccc4n3C)c2=O)cc1,0%,19%,-15%,7%,?,?,-1.3%,-5%
COc1cc(CN2CCN(S(=O)(=O)c3ccccc3)CC2)cc(OC)c1O,nt,-4%,-20%,nt,5%[46.1 µM],13%[46.1 µM],-0.7%,nt
CSc1ccccc1NC(=S)NC1CCCCC1,-6%,nt,34%[activator],nt,4%[46.1 µM],1%,nt,-1%
O=C(CN1CCN(Cc2ccccc2)CC1)NCCNc1ccc([N+](=O)[O-])cn1,-19%,nt,-2%,nt,6%,-2%,nt,-1%
Cn1c(NCc2ccccc2)nc2c1c(=O)n(Cc1ccc(Br)cc1)c(=O)n2C,0%,-1%,?,10%,?,?,-1.2%,-5%
COc1ccc(S(=O)(=O)NN=C2CCCCC2)cc1,7%,-7%,28%,3%,14%,12%,-0.7%,-4%
CC(C)N(Cc1nc(-c2ccc3c(c2)OCO3)no1)CC1CCC(=O)N1 (stereo not drawn),2%,nt,-9%,-3%,-3%[46.1 µM],-6%[46.1 µM],nt,0%
COc1ccc(OC)c(Nc2nc3ccccc3n3cnnc23)c1,-1%,nt,-22%,5%,nt,nt,nt,1%
COc1ccc(C)cc1Nc1nc(C)nc2sc(C)cc12,2%,nt,0%,-5%,?,?,nt,-2%
Cc1nn(CC(=O)NCc2cc3ccccc3[nH]2)c(C)c1[N+](=O)[O-],24%,-7%,-11%,-4%,-23%,15%,-1.5%,-2%
CCCCn1c(N)c(N(CCOC)C(=O)CCCc2nc3ccccc3s2)c(=O)[nH]c1=O,-17%,nt,-11%,nt,1%,0%,nt,-3%
CCc1cccc(CC)c1NC(=S)NCC(c1cccnc1)N(C)C (stereo not drawn),-2%,nt,-17%,nt,2%[46.1 µM],12%,nt,2%
CC(C)Cn1c(CN(Cc2ccccc2)Cc2ccccc2)nc2c1c(=O)n(C)c(=O)n2C,19%,?,?,-14%,nt,nt,-17%,-26%
COc1ccc(Cl)cc1NC(=S)N1CCC(c2ccc(C)cc2)C1 (stereo not drawn),5%,nt,-2%,nt,-15%[46.1 µM],3%[46.1 µM],nt,-1%
Cn1c(C(=O)OC(C(=O)NC2CCCCC2)c2ccncc2)cc2sccc21 (stereo not drawn),3%,3%,8%,-3%,?,?,5.8%,-14%
SMILES,RE007 growth inh,Cruzain noTriton,2A StopGo,NS1 function inh,MARV entry inh,LASV entry inh,Cruzain Triton,SARS PLP yeast
COc1cccc(C(c2c(C)[nH]n(-c3ccccc3)c2=O)c2c(C)[nH]n(-c3ccccc3)c2=O)c1OC,nt,?,-18%,-17%,2%,-24%,-5.8%,0%
O=C(CCCSc1nc2ccccc2[nH]1)N1CCN(c2ccccc2)CC1,-19%,-7%,?,-23%,?,-31%,-2.1%,3%
CCCNC(=O)NC(C)C12CC3CC(CC(C3)C1)C2 (stereo not drawn),6%,1%,nt,-59%,19%,-14%,-3.9%,-17%
O=[N+]([O-])c1ccc(NC(=S)NCCc2ccc(F)cc2)cc1,-14%,-5%,-16%,-39%,?,?,-15%,-87%
COc1ccccc1Nc1nc(-c2ccccc2F)nc2ccccc12,nt,-11%,?,nt,nt,-8%[46.1 µM],-9.3%,nt
COCCN(CCOC)c1nc(-c2ccc(C)cc2)nc2ccccc12,0%,nt,7%,-67%,nt,nt,nt,-5%
Cc1ccc(SCc2nnc(NC(=O)c3ccccc3)s2)cc1,-23%,10µM*,20%,-7%,4%,?,6.5%,1%
O=C(c1ccco1)N1CCN(Cc2c(F)cccc2Cl)CC1,-8%,nt,54%[activator],-4%,nt,nt,nt,16%
FC(F)(F)c1nc2ncc(Cl)cc2[nH]1,-6%,-5%,-19%,-134%,6%,28%[14.3 µM],3.7%,-1%
O=C(Nc1cc2c3c(c1)CC(=O)N3CCC2)c1c(F)cccc1F,5%,nt,0%,nt,8%,-11%,nt,-2%
Cc1cnc([N+](=O)[O-])n1CCOC(=O)NC(=O)c1cccc(F)c1,-4%,nt,8%,nt,-9%,0%,nt,-2%
CC(=O)c1ccc(-c2ccc(C(=O)NC3CCCCCC3)o2)cc1,22%,nt,12%,nt,10%[46.1 µM],1%,nt,0%
CCC1CCCCN1CCCNC(=O)CCCOc1cc(=O)n(C)c2ccccc12 (stereo not drawn),-10%,nt,-7%,nt,27%[46.1 µM],11%,nt,-3%
CC/C(=N\NS(=O)(=O)c1ccc(C)cc1)c1ccco1,16%,nt,18%,3%,-12%[46.1 µM],24%[46.1 µM],nt,-1%
Cc1ccc(C(=O)NNC(=S)NC(=O)c2ccco2)cc1,-2%,nt,-11%,-47%,0%[46.1 µM],-22%,nt,4%
CN(CCc1cnn(C)c1)Cc1cn(C)nc1-c1ccccc1F,-13%,nt,-1%,-2%,-15%[46.1 µM],nt,nt,0%
COc1ccc(/C=C/C(=O)OCC(=O)Nc2cccc(S(=O)(=O)NC3=NCCCCC3)c2)cc1,2%,nt,-10%,nt,?,?,nt,-12%
CCc1cccc2c(C(=O)COC(=O)C3=NNC(=O)CC3)c[nH]c12,1%,nt,-20%,7%,nt,nt,nt,-2%
COc1c(C)cc(C(=O)C2CCCN(C(=O)c3ccc4[nH]ccc4c3)C2)cc1C (stereo not drawn),-20%,nt,-16%,3%,-9%[46.1 µM],4.5µM*,nt,0%
CC(=O)N(c1ccccc1)C1SC(=O)N(c2ccccc2)C1=O (stereo not drawn),3%,3%,nt,-33%,-7%,4%,0.7%,6%
O=[N+]([O-])c1ccc(N2CCc3ccccc3C2)nc1,?,nt,30%,-113%,nt,nt,nt,-23%
Cc1ccc(COc2ccc(S(=O)(=O)N3CCCC3)cc2C(N)=O)cc1,-1%,nt,-17%,7%,5%[46.1 µM],16%[46.1 µM],nt,-1%
Fc1ccccc1CNC(=S)Nc1ccc(Cl)cc1,8%,-11%,0%,-44%,?,-29%,-10%,-13%
CCOC(=O)C1=C(C)NC2=C(C(=O)CCC2)C1c1coc2ccccc2c1=O (stereo not drawn),2%,-1%,nt,?,-10%,?,-0.1%,-14%
Cc1ccc(C(O)CN2C3=NCCN3c3ccccc32)cc1 (stereo not drawn),0%,1%,-25%,-3%,-14%,0%,-1.1%,-1%
SMILES,RE007 growth inh,Cruzain noTriton,2A StopGo,NS1 function inh,MARV entry inh,LASV entry inh,Cruzain Triton,SARS PLP yeast
Clc1ccccc1C1=NCc2nncn2-c2sc(Br)cc21,-4%,nt,-16%,nt,?,-9%[46.1 µM],nt,nt
O=C(CN1CCOCC1)NC1C2CC3CC(C2)CC1C3 (stereo not drawn),1%,-1%,10%,-2%,20%,0%,6.1%,-3%
CCn1nnnc1SCC(=O)NNC(=O)C1CCCCC1,2%,-1%,10%,-4%,20%,15%,1.6%,0%
COCCn1c(SCC(=O)NCCc2ccccc2)nnc1-c1ccco1,-5%,-3%,13%,2%,-6%,6%,0.7%,-11%
CCc1nnc(NC(=O)c2ccc(-c3ccc([N+](=O)[O-])cc3Cl)o2)s1,-20%,nt,-1%,nt,-2%[46.1 µM],-2%[46.1 µM],nt,2%
Fc1ccc(-c2nc3c(-c4ccccc4)cnn3cc2CCN2CCOCC2)cc1,-19%,nt,-6%,1%,-7%[46.1 µM],0%,nt,-2%
N=c1c2c(-c3ccccc3)c(-c3ccccc3)n(Cc3ccco3)c2ncn1Cc1ccco1,12%,?,25µM*,9%,?,?,2.2%,-6%
Cc1ccc(NC(=O)c2ccc(CSc3ncnc4nc[nH]c34)cc2)c(C)c1,-3%,?,?,8%,?,18µM*,-1.4%,0%
O=C(Nc1ccc(Cl)c(C(F)(F)F)c1)c1nc2ccccc2nc1N1CCCCC1,nt,-9%,?,nt,nt,19%[46.1 µM],-6.6%,nt
CCc1cccc(NC(=O)CCCSc2nc3ccccc3[nH]2)c1,-18%,-21%,?,-31%,-11%,-1%,-7.1%,14%
O=C1c2oc3ccccc3c(=O)c2C(c2cccc(Br)c2)N1Cc1ccco1 (stereo not drawn),2%,?,37%[activator],-74%,12%,3%,-4.5%,2%
COc1ccccc1NC(=O)C(=O)N1N=C(C(C)C)CC1(O)C(F)(F)F (stereo not drawn),0%,0%,nt,13%,-2%,17%,1.4%,-2%
